MT1-MMP act inh: blockers of MT1-MMP proenzyme processing, primary screen, HT1080 RFP-PRO-GFP cells, GFP/RFP fluorescence; 360,000 tested, 0.061% active; GFP/RFP ratio change, % at 20 µM; GFP/RFP ratio fluorescence, overnight; percent of plate control window, DMSO zero; Matrix metalloproteinase-14 (Homo sapiens), P50281;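 active = GFP/RFP ratio change of at least 30% with cell ATP level not reduced by more than half and red fluorescence within 50% of control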; also: strong numbers were not always called active
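Material: RFP-PRO-GFP reporter HT1080 cells. Dosing: single-point 20 µM compound, 1% DMSO. Controls: DMSO and RFP-L50D-GFP cell wells. Timing: cells overnight before dosing, compound overnight, 37 °C, 5% CO2. Measure: GFP/RFP fluorescence ratio.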
eIF4H inh: human eIF4H binding inhibitors, primary screen, translation initiation inhibitor project, biochemical, uHTS, fluorescence polarization; Eukaryotic translation initiation factor 4H (Homo sapiens), Q15056; eIF4H fluorescence polarization binding assay; inhibition, % at 35 µM; 290,000 tested, 0.94% active;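 active = 50% or more with normal probe brightness, or confirmed in later tests; about a fifth of its hits are not listed in these tables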;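 also: calls also rest on retests at 20 µM and on dose response follow-up; 0% = protein and probe with vehicle and 100% = probe without protein; strong numbers were not always called active; many hits fall short of the cut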
UUG fidelity: modulators of yeast start codon fidelity, primary screen, whole organism, S. cerevisiae, single point, plate reader. S. cerevisiae UUG-firefly luciferase reporter, luminescence/redox ratio. activity score, % at 18.7 µM. 350,000 tested, 0.13% active. AID 602363, 2012;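 active = replicate mean at a twofold rise or more, about +100% in these data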;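 also: firefly luciferase made from a UUG start codon reports start codon fidelity; reporter light over untreated wells divided by growth signal over untreated wells; some hits fall short of that in this replicate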
CSC inhib: cancer stem cell viability inhibitors, primary screen, luminescence | 300,000 tested, 1.1% active | cancer stem cell-like cells viability | inhibition, % at 7.5 µM;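 active = mean at 75% or more and at least half the replicates too; tested in HMLE shEcad cells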;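 also: 0% = median of negative and 100% = median of positive control wells; the first replicate is given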
Env fusion inh: inhibitors of HIV-1 Env-driven cell-cell fusion, primary screen, HeLa-JRFL effector, CEM21 target cells, luciferase. 360,000 tested, 1.1% active. inhibition, % at 12.3 µM;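 active = mean replicate inhibition score of at least 50 and every replicate individually at or above 50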;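 also: 0% = plate neutral controls and 100% = maraviroc near 300 nM; one replicate is shown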
PABP FP inh: PABP poly(A) RNA binding inhibitors, primary screen, biochemical, fluorescence polarization, uHTS; inhibition, % at 35 µM; 290,000 tested, 1% active; AID 2014, 2009; Polyadenylate-binding protein 1 (Homo sapiens), P11940;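 active = 50% or more with normal probe brightness, or confirmed in later tests; about a fifth of its hits are not listed in these tables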;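 also: calls also rest on retests at 20 µM and on dose response follow-up; controls were probe without protein and protein plus probe with vehicle; some compounds called inactive have numbers as strong as hits; many hits fall short of the cut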
Rce1 inh: yeast Rce1p protease inhibitors, primary screen, biochemical, fluorescence, cell-free homogeneous; yeast membranes, quenched prenylated peptide cleavage fluorescence; calls only; 290,000 tested, 0.27% active; AID 2563, 2010;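 active = fall in fluorescence gain of 50% or more versus controls, with final raw signal at or below 3038400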;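 also: plate controls were neutral control wells for no effect and wells lacking membranes for full effect; tested at 10 µM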
Target sequence (Q03530 whole entry, looked up): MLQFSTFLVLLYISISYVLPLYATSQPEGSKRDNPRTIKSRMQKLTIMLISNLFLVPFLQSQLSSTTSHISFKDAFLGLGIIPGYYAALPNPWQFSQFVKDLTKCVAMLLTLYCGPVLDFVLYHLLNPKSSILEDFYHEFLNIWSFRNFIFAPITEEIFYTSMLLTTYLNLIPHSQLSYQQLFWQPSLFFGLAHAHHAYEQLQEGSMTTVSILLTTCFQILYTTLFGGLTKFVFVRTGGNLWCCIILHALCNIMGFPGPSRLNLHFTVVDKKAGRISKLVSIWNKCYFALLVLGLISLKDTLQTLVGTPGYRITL
MT1-MMP act inh RFP: further read-out of MT1-MMP act inh, marked with its call; RFP signal change, %; measured here: RFP expression control read;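 0 = vehicle wells; hits needed this value within 50% of zero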
* marks the source's active call; other numbers are inactive results; i = inactive; . = not tested or not shown. Not all compounds are listed; the hit share may differ from the screen's.

SMILES	MT1-MMP act inh	MT1-MMP act inh RFP	eIF4H inh	UUG fidelity	CSC inhib	Env fusion inh	PABP FP inh	Rce1 inh
CN1CCN(NC(=O)c2cc(S(=O)(=O)N3CCOCC3)c(Cl)cc2Cl)CC1	2	2	-2	.	10	1	6	i
O=C(CN1CCCc2ccccc21)N/N=C/c1ccc(O)cc1O	0	4	14	-21	17	2	-6	i
Cc1ccc(NC(=O)c2ccc3nsnc3c2)c(C)c1	-1	0	-16	-24	-8	-34	16	i
Cc1cc([N+](=O)[O-])nn1CCCC(=O)N1CCN(c2ccccc2)CC1	.	.	1	.	0	1	1	i
Cc1ccc(NC(=O)c2cc(-c3cc(Cl)ccc3C)n[nH]2)cc1NS(C)(=O)=O	-7	-29	.	2	.	65*	.	.
COc1ccc(-c2oc3cccnc3c2C#CCO)cc1	2	-2	-8	4	-9	.	3	i
CCn1c(=O)cc(OCC(=O)NCCCN2CC(C)CC(C)C2)c2ccccc21 (stereo not drawn)	2	7	7	-14	-8	6	-1	i
Oc1c(C(Nc2nccs2)c2ccc(C(F)(F)F)cc2)ccc2cccnc12 (stereo not drawn)	9	-6	12	.	.	-73	15	i
O=C(O)Cn1nncc1-c1ccc(C(F)(F)F)cc1	4	-1	.	6	.	-47	.	.
Cc1cc2n(n1)SC(Nc1cc(Cl)ccc1Cl)N2 (stereo not drawn)	-1	-4	0	-33	13	-334	-10	.
N/C(=N\c1nc(CSc2ccccn2)cc(=O)[nH]1)Nc1ccc(Cl)cc1Cl	0	-3	4	-26	.	-1	4	i
C=CCSC1=C(C#N)C(c2ccc(OCC)cc2)CC(=O)N1 (stereo not drawn)	0	1	-3	-5	-16	-1	1	i
Cc1onc(-c2ccccc2)c1C(=O)Nc1ccc2c(c1)OCO2	6	5	6	.	-8	.	-1	i
Cc1ccc(OC(=O)C2CSC3(C)CCC(=O)N23)c(Br)c1 (stereo not drawn)	5	0	.	0	-11	-10	.	i
CCOc1ccc(-c2nc(N)ncc2Oc2cccc(OC)c2)c(O)c1	-3	-7	-2	-12	-8	.	-5	i
Clc1ccccc1-c1cc2nc(NCc3ccco3)ccn2n1	0	-3	.	-41	.	-92	.	.
CCCOc1ccc(C(=O)NNC(=S)NC(=O)c2cc(-c3ccccc3)nc3ccccc23)cc1	3	-12	2	-19	22	29	-3	i
COc1ccc(-c2cc(NC=O)c3ncc(-c4cc(OC)c(OC)c(OC)c4)n3c2)cc1	-6	-3	.	-5	.	-103	.	.
CN(C(=O)COC(=O)CN1C(=O)c2ccccc2C1=O)c1c(N)n(Cc2ccccc2)c(=O)[nH]c1=O	5	3	.	11	-9	5	.	i
N#CC(C#N)=NNc1ccc(S(=O)(=O)N2CCCC2)cc1	1	0	-5	.	2	6	27	i
Cc1cccc(C)c1NC(=O)C(=O)NCC1CCCN1S(=O)(=O)c1ccccc1 (stereo not drawn)	4	-3	.	-3	.	-9	.	i
COc1ccc(C(c2nnnn2CC2CCCO2)N2CCN(c3cccc(C)c3C)CC2)cc1 (stereo not drawn)	-14	-17	0	-6	0	.	32	i
NC(=O)C(=O)N/N=C/c1c[nH]c2ccc(Br)cc12	-3	-3	-11	.	-2	3	-5	i
Cc1cc(N2CCCC2)nc(SCC(=O)c2ccccc2)n1	-2	-4	-6	-15	-5	.	-2	i
O=C(Cc1ccccc1)N/N=C/c1cc(Br)cc(Br)c1O	3	-1	15	-10	29	9	11	i

Single records, as listed above. Screens in order: MT1-MMP act inh, MT1-MMP act inh RFP, eIF4H inh, UUG fidelity, CSC inhib, Env fusion inh, PABP FP inh, Rce1 inh
CCCOc1ccc(C(=O)NNC(=S)NC(=O)c2cc(-c3ccccc3)nc3ccccc23)cc1 is listed as 3, -12, 2, -19, 22, 29, -3, i
Cc1ccc(NC(=O)c2cc(-c3cc(Cl)ccc3C)n[nH]2)cc1NS(C)(=O)=O is listed as -7, -29, ., 2, ., 65*, ., .

Returning to the listing, starting 3 compounds before the break.
SMILES	MT1-MMP act inh	MT1-MMP act inh RFP	eIF4H inh	UUG fidelity	CSC inhib	Env fusion inh	PABP FP inh	Rce1 inh
NC(=O)C(=O)N/N=C/c1c[nH]c2ccc(Br)cc12	-3	-3	-11	.	-2	3	-5	i
Cc1cc(N2CCCC2)nc(SCC(=O)c2ccccc2)n1	-2	-4	-6	-15	-5	.	-2	i
O=C(Cc1ccccc1)N/N=C/c1cc(Br)cc(Br)c1O	3	-1	15	-10	29	9	11	i
CCC(NC(=O)c1cc(COc2ccc(OC)cc2Cl)on1)c1ccncc1 (stereo not drawn)	-14	-19	-2	-12	6	-50	-9	i
Cc1cc(C)c2c(N)c(C(=O)c3cccc(Cl)c3)sc2n1	-2	-5	-7	-11	-10	-22	3	i
COCCCNC(=O)c1cccc(C(=O)NCCCOC)c1	.	.	-4	-11	.	18	21	i
Cc1ccc(C2=[N+]([O-])C3(CCCCC/C3=N\NC(N)=S)N(O)C2(C)C)o1 (stereo not drawn)	.	.	3	.	5	.	3	i
C/C(Cl)=C/CN1C(=O)C2C3C=CC(C3)C2C1=O (stereo not drawn)	-3	1	-10	-26	-1	-26	3	i
COc1ccc(NC(=O)COC(=O)C2CCCN2C(=O)OC(C)(C)C)cc1Cl (stereo not drawn)	-4	0	.	-4	.	-3	.	.
CCOc1ccc(NC(=O)N(C2CCCCC2)C2CCN(C(C)=O)CC2)cc1	-1	1	.	-14	6	7	.	i
Cc1ccc(SCCN2CCC(C)CCC2=O)cc1 (stereo not drawn)	0	7	-6	3	-14	-47	1	i
Cc1cc(C)nc(SCc2ccc(C(=O)O)o2)n1	-3	1	-4	-17	0	-37	0	i
O=C(NCC(=O)N(Cc1ccc(F)cc1)C(C(=O)NC1CCCC1)c1ccco1)c1ccco1 (stereo not drawn)	0	0	4	0	2	.	5	i
COc1cc2c(cc1OC)CN(S(=O)(=O)c1ccccc1F)CC2	-3	-5	5	8	-10	-7	11	i
CCCOc1ccc(/C=N/NC(=O)CSCc2ccc([N+](=O)[O-])cc2)cc1OCC	-2	-7	11	1	-9	.	8	i
CN(Cc1cccs1)C(=O)CSc1nnnn1C	-1	2	-15	-16	-2	.	31	i
Cc1c(C(=O)N2c3ccccc3CC2C)oc2ccccc12 (stereo not drawn)	-3	-1	4	-8	56	-195	-7	i
N#Cc1ccc(-c2nc3ccc(Br)cn3c2Cc2cccc(F)c2)cc1	-1	-10	.	-11	.	-340	.	.
O=C(c1cccc([N+](=O)[O-])c1)n1nc(-c2ccccc2)nc1NCc1ccccc1	9	8	-7	-16	14	-8	2	i
Cc1ccc2cc(CN(Cc3ccc4c(c3)OCO4)Cc3nnnn3Cc3ccco3)c(=O)[nH]c2c1C	-10	0	-2	.	10	.	5	i
COc1ccc(-c2cc(C(=O)Nc3ccccc3O)c3ccccc3n2)cc1OC	-1	3	-16	.	31	11	-1	i
C#CCNc1c2c(nc3nnnn13)CCCC2	-2	3	0	-13	6	1	-5	i
Cc1nc(SCC(=O)O)c(C#N)c2c1CCCC2	0	3	108*	6	1	-3	82*	i
O=C(COc1cccnc1[N+](=O)[O-])N1N=C(c2ccc(Cl)cc2)CC1c1ccco1 (stereo not drawn)	-1	-7	-12	.	-10	0	3	i
Cc1cccc(N2N=C(C(=O)OCC(=O)c3ccccc3)CCC2=O)c1	-3	1	.	-13	-6	-6	.	.
CCCC(CCC)C(=O)NNc1cc(=O)c2c(=O)n(C)c(=O)n(C)c2[nH]1	-3	-3	7	-11	-5	.	7	i
COc1ccccc1OCC(=O)Nc1oc(-c2ccccc2)c(-c2ccccc2)c1C#N	8	-11	0	-19	1	.	7	.
CCOC(=O)C1=C(C)NC2=C(C(=O)c3ccccc32)C1c1cccnc1 (stereo not drawn)	-2	7	3	.	-15	.	9	i

(listing goes on)
SMILES	MT1-MMP act inh	MT1-MMP act inh RFP	eIF4H inh	UUG fidelity	CSC inhib	Env fusion inh	PABP FP inh	Rce1 inh
COc1ccc(-c2cn3cccnc3n2)cc1NC(=O)C1CCCC1	0	-4	-7	-23	-9	14	10	i
Nc1nc(SCC(=O)N2CCN(c3ccccc3)CC2)n[nH]1	0	7	3	-25	-3	-7	-1	i
Cc1cccc(C)c1NC(=O)CSc1nnc(-c2ccoc2C)n1CCc1ccccc1	-2	-2	-6	-8	.	-41	0	i
CCCNC(=O)C(Sc1ccccc1)c1ccccc1 (stereo not drawn)	0	3	5	9	-12	19	25	i
O=C(NCCc1c[nH]c2ccccc12)C1CCN(S(=O)(=O)c2ccc(F)cc2)CC1	4	-3	9	0	20	17	-9	i
C/C(Cc1ccccc1)=N\NC(=O)CNC(=O)COc1cccc(C)c1	-1	-1	-7	-7	-10	5	-3	i
COc1ccc(OC)c(N(CC(=O)N2CCCC2)S(C)(=O)=O)c1	-2	0	-2	-5	0	-6	6	i
Cc1cc(N2CCCN(C)CC2)nc2cc(Cl)ccc12	-5	-3	-3	-20	50	26	-8	i
C(#CC12CC3CC(CC(C3)C1)C2)CN1CCOCC1	9	-1	-6	.	6	8	-23	i
CN(CC(=O)Nc1c(Cl)cccc1Cl)CC(=O)N1CCc2ccccc21	3	3	.	1	.	-177	.	.
Cc1ccn(CCSCC(=O)O)n1	1	3	-3	-3	-4	25	9	i
CCOC(=O)c1ccsc1NC(=O)CCS(=O)(=O)c1ccccc1	0	2	0	-10	-5	.	-9	i
O=S(=O)(c1c(F)cccc1F)N1CCN(C(=S)NCc2ccc3c(c2)OCO3)CC1	-4	-7	8	.	12	-15	-4	i
CN1CCN(NC(=O)Nc2ccc(Br)cc2Cl)CC1	-1	2	-7	-4	0	-5	-14	i
Cc1oc(-c2ccccc2Cl)nc1CSCC(=O)NC1CCCC1	-1	5	1	.	-4	31	-3	i
CCC1CCCCN1C(=O)COC(=O)c1cncc(Br)c1 (stereo not drawn)	-3	4	.	-26	.	-3	.	.
COc1cccc(Nc2nnc(SCc3cc([N+](=O)[O-])cc4c3OCOC4)s2)c1	1	-20	11	.	15	.	7	i
Cc1ccc(CCNC(=O)C2CC(=O)N(CCc3ccccc3)C2)cc1 (stereo not drawn)	-1	5	.	-3	-2	-24	.	i
Cc1ccc(NC(=O)CCS(=O)(=O)c2ccc3nc(C)sc3c2)c(C)c1	8	3	.	-6	.	-16	.	.
O=[N+]([O-])c1ccc2c(c1)C=C1CCCCC1(N1CCCCC1)O2 (stereo not drawn)	-3	0	-5	0	-4	-17	-7	i
O=C(Nc1ccncc1)Nc1ccc(Cl)cc1	-5	1	-4	-42	-1	.	-3	i
COc1ccc(C(CNC(=O)c2oc3cc(C)c(C)cc3c2C)N2CCCCC2)cc1 (stereo not drawn)	-2	-2	-20	-10	7	5	3	i
COc1ccc(C(=O)Nc2c(N)nc(SCC(=O)NCC3CCCO3)[nH]c2=O)cc1OC (stereo not drawn)	-1	0	0	0	-11	17	9	i
CCOc1ccc(CCNC(=O)c2ccc(CS(=O)Cc3ccc(Cl)cc3)o2)cc1 (stereo not drawn)	0	-6	-5	-9	3	24	-1	i
O=S(=O)(c1ccc(-c2n[nH]c(=S)o2)cc1)N1CCCCC1	-3	-3	17	-22	-4	0	21	i
CCOC(=O)C1CCN(C(=O)COc2cc(C)c(Br)c(C)c2)CC1	3	-1	4	11	-6	.	2	i
Cc1nn2c(-c3ccccc3)ccnc2c1Br	4	0	6	-12	-8	-2	10	i
Cc1ccc(O)c(Nc2ncnc3ccccc23)c1	7	-9	0	-16	21	10	12	.
CCc1ccccc1NC(=O)CN1CCN(C(=O)c2ccc(OCc3cn4ccccc4n3)cc2)CC1	0	-9	.	-5	.	9	.	.
O=C(C1CCN(S(=O)(=O)c2cccs2)CC1)N1CCN(Cc2ccccc2)CC1	3	1	0	.	-6	0	29	i

Source: PubChem
